High-throughput results: PubChem, National Center for Advancing Translational Sciences (NCATS)
Rango release inh: inhibitors of RanGTP-induced Rango-importin beta complex dissociation. AID 540253. 340,000 tested, 0.071% active. O95149+P62826. Biochemical FRET Rango-importin beta, RanGTP-induced dissociation. Potency, µM (top dose mostly 46.1 µM), without a hit: at the top dose activity change, negative = inhibition; active means falling FRET ratio curve, often poorly fitted, with flat reads before Ran was added; inconclusive means other falling curves, or compound fluorescence or quenching; inactive means flat or rising ratio curve;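 also: potency is read from the fitted curve at half-maximal effect; % of control where 0% means no effect; nearly all actives have a fitted effect of over 45% in size; -100% = wells without RanGTP and RCC1; the record marks most hits as doubtful in a second field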
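FRET read at 45 min, room temperature: inhibitors block the CFP/YFP signal rise when RanGTP (0.6 uM Ran, 2 mM GTP, 0.2 uM RCC1) frees Rango (0.1 uM) from importin beta (0.25 uM). Pre-read after 5 min compound exposure flags interference.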
Rango-impB inh: prevents formation of the Rango-importin beta complex. Q14974. Rango CFP/YFP FRET sensor + importin beta, 45 min. 340,000 tested, 0.031% active. Potency, µM (titrated, usually from 92.2 µM), for the others: at the highest dose inhibition of complex formation; active = rising FRET ratio curve, often small or poorly fitted; inconclusive = mostly compound fluorescence or quenching in the first reads; inactive = flat curves in all reads;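 also: potency is read from the fitted curve at half-maximal effect; 0% = DMSO wells and 100% = buffer wells lacking importin beta; nearly all actives have a fitted effect of over 15% in size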
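FRET biosensor (snurportin 1 IBB flanked by EYFP and cerulean), 50 nM, with compound 5 min, then 0.125 microM importin beta in PBS, 1 mM DTT, 0.02% Tween-20, 0.1% BSA. CFP/YFP ratio read after 45 min at room temperature; pre-read flags interference.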
GLA inh pH 4.5: alpha-galactosidase A (human) inhibition, pH 4.5. 230,000 tested, under 10 active. AID 1467. purified enzyme, 4-MU-alpha-Gal fluorescence, pH 4.5. P06280. activity change, negative = inhibition, % at 105 µM; inconclusive = small, poorly fitted or top-dose-only inhibition, or a rising curve; inactive = flat fitted curve, though single readings scatter; no compound was filed as active;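 also: 0% = full activity with enzyme and -100% = basal without enzyme; dose as in the result columns while the protocol names 77 µM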
Target sequence (P06280 whole entry, looked up): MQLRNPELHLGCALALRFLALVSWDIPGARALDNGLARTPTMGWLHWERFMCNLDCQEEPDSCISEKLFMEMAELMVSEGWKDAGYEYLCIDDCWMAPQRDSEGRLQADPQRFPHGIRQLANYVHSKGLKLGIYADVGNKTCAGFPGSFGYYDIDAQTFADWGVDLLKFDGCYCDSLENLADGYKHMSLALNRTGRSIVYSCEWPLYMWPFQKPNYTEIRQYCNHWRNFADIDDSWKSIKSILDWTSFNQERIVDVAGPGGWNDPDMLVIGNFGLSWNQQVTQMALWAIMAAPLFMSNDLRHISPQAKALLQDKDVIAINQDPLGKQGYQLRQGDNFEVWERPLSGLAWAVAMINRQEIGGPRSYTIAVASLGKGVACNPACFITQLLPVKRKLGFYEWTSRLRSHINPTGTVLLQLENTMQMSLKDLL
miR-21 FLuc: miR-21 reporter, rising signal | Potency, µM (highest dose often 38.3 µM), for inactives: at the highest dose reporter change, positive = more light | HeLa miR-21 FLuc reporter, luciferase, 48 h | 340,000 tested, under 10 active; active = well fitted rising curve with a large enough effect; inconclusive = small, poorly fitted or top-dose-only effect; inactive = no such curve, though single readings can be large or run the other way;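 also: % of control where 0% means no effect; miR-21 action dims this reporter so a rising signal means less miR-21 action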
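HeLa cells stably expressing CMV-driven firefly luciferase with a downstream miR-21 binding sequence, endogenously expressing miR-21, were treated with titrations (up to about 40uM final) for 48 hours at 37 degree Celsius. Luciferase luminescence was read after lysis.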
* hit, by the source's call; ? = inconclusive; . = not tested or not shown; & = joins results of further samples; [ ] = another dose, or the depositor's remark. An excerpt, so the mix of outcomes need not match the whole.

SMILES	Rango release inh	Rango-impB inh	GLA inh pH 4.5	miR-21 FLuc
O=c1c2c(nc3c(-c4cccc5ccccc45)c[nH]n13)CCC2	2%	-0.6%	0	-1%
Cc1ccc(N(CC(=O)NCc2ccco2)C(=O)CNS(=O)(=O)c2ccc(F)cc2)c(C)c1	3%	0.1%	.	-1%
O=C(Nc1nnc(-c2ccccc2)s1)c1ccccc1O	-2%	2.7%	.	-32%
CC(=O)Nc1ccc(NC(=O)c2ccc(COc3ccccc3Br)o2)cc1	11%	-1.3%	.	-7%
Cc1cc(C)n(CC(=O)N/N=C/c2ccc([N+](=O)[O-])s2)n1	-1%	-5.1%	-14	?
CCCCOc1ccccc1C1NC(=O)CCC1[N+](=O)[O-] (stereo not drawn)	-6%	3.9%	.	0%
COc1ccc(/C(O)=C2/C(=O)C(=O)N(CC3CCCO3)C2c2ccc(O)c(OC)c2)cc1 (stereo not drawn)	24%	-2.8%	-16	-1%
CCOc1ccc(-n2c(COc3ccc(C)cc3)nnc2SCC(N)=O)cc1	-1%	0.1%	-5	2%
Cc1nccn1CC1CCc2c(c3ccccc3n2C)C1=O (stereo not drawn)	29%&21%	0.1%&0.9%	.	2%
CC(C)(C)NC(=O)Nc1ccccc1C(N)=O	?	1.0%	7	-6%
COc1cccc(NC(=O)Cn2c3ccc(OC)cc3c3nc4n(c(=O)c32)CCS4)c1	10%	-3.6%	.	0%
Cc1cc(C)c[n+](CC(=O)c2ccccc2)c1	-18%	?	.	-3%

SMILES	Rango release inh	Rango-impB inh	GLA inh pH 4.5	miR-21 FLuc
COc1ccc(-n2c(NNC(C)=O)nc3sc4c(c3c2=O)CCCC4)cc1	0%	1.1%	.	14%
N#Cc1cc(Sc2ccccn2)c([N+](=O)[O-])cc1C#N	2%	0.5%	-12[21.1 µM]	-6%
COc1ccc(CC(=O)OCC(=O)N2N=C(c3ccccc3)CC2c2ccc(OC)cc2)cc1 (stereo not drawn)	-13%	-3.9%	-8	-14%
CC(C)N=c1cc2n(-c3ccc(Cl)cc3)c3ccccc3nc-2cc1Nc1ccc(Cl)cc1	?	?	0	.
Cc1ccc(C)c(NC(=O)c2sc(Cl)nc2-c2ccccc2)c1	1%	0.0%	-3	1%
CCN(CC)S(=O)(=O)c1ccc(C(=O)NC(C)(C)C)cc1	11%	-2.5%	-1	2%
CC(C)(C)OC(=O)NCc1ccc(NC(=O)c2nc[nH]c2C(=O)NCCN(CCNC(=O)c2[nH]cnc2C(=O)Nc2ccc(CNC(=O)OC(C)(C)C)cc2)CCNC(=O)c2[nH]cnc2C(=O)Nc2ccc(CNC(=O)OC(C)(C)C)cc2)cc1	1%	-1.1%	.	.
Cc1cc(C=C2C(=O)c3ccccc3C2=O)c(C)n1-c1cccc(C(=O)O)c1	?	?	-12	-64%
CN1/C(=C/C=C(C#N)C#N)C(C)(C)c2ccccc21	?	?	-5	1%
O=S(=O)(Cc1cc(-c2ccc(Cl)cc2)no1)c1ccccc1	1%	-1.9%	2	-61%
CSc1nc(N2CCN(C)CC2)c2c(c1C#N)CC(C)(C)OC2	9%	0.2%	0	-6%
CC(C)C(=O)Nc1cccc(C(=O)Nc2ccc3c(c2)OCO3)c1	0%	-0.8%	-4	-33%

SMILES	Rango release inh	Rango-impB inh	GLA inh pH 4.5	miR-21 FLuc
COc1ccc(NS(=O)(=O)c2cccc(C(=O)N(C)CC(=O)Nc3ccc(C)cc3)c2)cc1	-10%	-0.2%	.	.
C=CCNC(=O)/C(C#N)=C/c1ccccc1OCc1ccc(C(=O)OC)cc1	-13%	6.0%	3	-8%
CC(=O)Nc1ccc(NC(=O)Cc2ccc(S(=O)(=O)N3CCCCC3)s2)cc1	-5%	-0.3%	-28	-17%
CCOC(=O)Cn1nc(C)c(NC(=O)c2cccc([N+](=O)[O-])c2)c1C	-3%	3.7%	4	5%
COc1cc2nc(CN(C)Cc3ccc(SC)cc3)[nH]c(=O)c2cc1OC	2%	-0.6%	-7	15%
O=c1c2ccccc2oc2ccc(C#CC3(O)CCCCC3)cc12	-9%	-1.2%	.	.
C=CCn1c(SCC(=O)O)nc2sc(CC)cc2c1=O	14%	1.6%	-26	-1%
O=c1[nH]c2cccnc2n(CCNc2ncc(C(F)(F)F)cc2Cl)c1=O	-6%	-3.4%	-3	-21%
O=C(c1cc(-c2ccccn2)nc2ccc(Cl)cc12)N1CCN(CCc2ccccc2)CC1	-1%	-1.3%	1	5%
COc1cc(/C=C2\SC(=O)N(CCN)C2=O)ccc1OS(=O)(=O)c1cc(C)ccc1C	6%	2.8%	-4	1%
CCOc1ccc(NC(=O)CSc2nnc(C)n2Cc2ccccc2)cc1	-2%	-1.2%	3	-12%
CCOC(=O)C(C)Sc1nnc(-c2c[nH]c3ccccc23)n1C (stereo not drawn)	-13%	-3.7%	4	-9%

SMILES	Rango release inh	Rango-impB inh	GLA inh pH 4.5	miR-21 FLuc
O=C(c1ccc2c(c1)OCO2)N(c1ccc(Br)cc1)C1C=CS(=O)(=O)C1 (stereo not drawn)	0%	-3.6%	.	-2%
CC(C)N(C)S(=O)(=O)c1ccc(NC(=O)C2=COCCO2)cc1	13%	-0.3%	.	.
CC(=O)c1ccccc1NC(=O)CSc1n[nH]c(=O)n1C1CC1	12%	-1.4%	.	.
NS(=O)(=O)c1ccc(-n2ncc3c(=O)[nH]c(SCC(=O)Nc4nccs4)nc32)cc1	0%	?	0	-1%
CN(C)CCn1c(=O)n(Cc2ccco2)c(=O)c2c3c(sc21)CCCCC3	1%	1.2%	-3	-5%
NNC(=O)c1sc2cc(C(F)(F)F)cnc2c1-c1cccs1	11%	3.0%	-2	-4%
O=[N+]([O-])c1cccc(/C=N/Nc2nc(N3CCCCC3)nc(N3CCCCC3)n2)c1	15%	-3.3%	-13	2%
CCOCCCNc1nc2c(c(=O)n(C)c(=O)n2C)n1CCCc1ccccc1	-3%	2.3%	-5	0%
CCCn1c(=O)[nH]c(=O)c2c(C(F)(F)F)cc(-c3ccc(C)cc3)nc21	0%	-1.2%	1[21.1 µM]	0%
O=C(c1ccccc1)N(NC(=O)C(O)(c1ccccc1)c1ccccc1)c1cccc(F)c1	27%	2.1%	-4	5%
CCOc1cc(S(=O)(=O)NCCCN2CCOCC2)c(C)cc1C	13%	2.0%	.	-6%
COc1ccc(CCn2c(NN=C3CCCC3)nc3c2c(=O)[nH]c(=O)n3C)cc1	-13%	0.7%	0	0%

SMILES	Rango release inh	Rango-impB inh	GLA inh pH 4.5	miR-21 FLuc
CC(C)(C)n1cnc2cc(NC(=O)c3cccs3)ccc21	-7%	1.4%	-9	-61%
O=C(CN1CCC(O)CC1)N1c2ccccc2C=Cc2ccccc21	19%	4.8%	5	0%
O=C(c1ccc(O)cc1)c1ccc(C(=O)O)c(C(=O)O)c1	6%	-2.8%	-4	-3%
Cn1c(/C(C#N)=C2/CCCCCN2)nc2ccccc21	?	?	3	-6%
O=C(O)/C(=C\c1ccco1)NC(=O)c1ccco1	-5%	2.0%	.	-2%
COc1ccc(C(NC(=O)c2ccccc2F)NC(=O)c2ccccc2F)cc1	8%	-0.3%	6	-3%
COc1ccc2c(c1)-c1c(sn(-c3ccc(OC)c(OC)c3)c1=S)C(C)(C)N2	-5%	-1.8%	-2	-8%
Cn1c(=O)[nH]c(=O)c2c1nc(N1CCOCC1)n2CCc1ccccc1	-17%	2.7%	9	-4%
N#Cc1ccc(OCC(O)CN2CCN(c3ncc(C(F)(F)F)cc3Cl)CC2)cc1 (stereo not drawn)	-4%	0.2%	.	?
COc1ccc(NC(=O)CSc2nnc(Cn3c(=O)sc4ccccc43)n2C)cc1	1%	-0.9%	-3	-7%
Cc1cc(Cl)ccc1OCC(=O)NC(=S)Nc1ccccc1N1CCOCC1	-2%	-1.6%	-3	-1%
COc1ccccc1-n1c(=S)[nH]c2c(sc(=S)n2-c2ccccc2)c1=O	-7%	1.9%	-27	-1%

SMILES	Rango release inh	Rango-impB inh	GLA inh pH 4.5	miR-21 FLuc
CCN1CCN(C(=O)C2CCN(S(=O)(=O)c3ccc4c(c3)NC(=O)C(C)S4)CC2)CC1 (stereo not drawn)	-11%	-0.6%	.	-1%
C[C@H](CO)N1C[C@H](C)[C@@H](CN(C)C(=O)Nc2ccc(C(F)(F)F)cc2)Oc2c(NC(=O)Nc3ccc(C(F)(F)F)cc3)cccc2C1=O	10%	1.3%	.	.
CC(C)(C)OC(=O)NCCC(=O)N/N=C/c1ccc2nccnc2c1	6%	1.5%	2	-1%
Cc1ccc(-c2csc(N3CCN(c4ccc5nc(-c6ccncc6)n(CCN6CCCCC6)c5c4)CC3)n2)cc1	-9%	?	.	-6%
CCOC(=O)C1(S(=O)(=O)c2ccc(Cl)cc2)CCN(Cc2ccccc2)CC1	-11%	5.3%	-2	-4%
N#CCc1ccc(Oc2ncccn2)cc1	-6%	1.5%	.	0%
O=S(=O)(NC1CCCCC1NCc1ccco1)c1ccc(Cl)cc1 (stereo not drawn)	0%	0.4%	-4	-3%
Cc1c(Cl)cnc(NC(=O)COC(=O)c2cccc(S(=O)(=O)N3CCc4ccccc4C3)c2)c1Cl	11%	-0.6%	-4	-3%
Cn1c(NCCCN2CCOCC2)nc2c1c(=O)n(Cc1ccc(Cl)cc1Cl)c(=O)n2C	-6%	-3.8%	4	-14%
COc1cc(S(=O)(=O)N2CCC(c3nc4ccccc4s3)CC2)ccc1S(=O)(=O)NC1CCCC1	12%	-0.7%	-13	-2%
Cc1cc([N+](=O)[O-])nn1CCC(=O)Nc1nccs1	18%	1.8%	?	-1%
CC(=O)Nc1ccc(NC(=O)[C@@H](NC(=O)c2cccc(C)c2)C(C)C)cc1	6%	1.4%	.	-7%

SMILES	Rango release inh	Rango-impB inh	GLA inh pH 4.5	miR-21 FLuc
CCOC(=O)C(NC(=O)c1ccccc1)=C1C=C(C)OC(C)=C1	-7%	-3.2%	-2	-11%
COc1cccc(NC(=O)Cn2c(SCC(=O)N3CCOCC3)nc3ccccc32)c1	-4%	-3.5%	0	-13%
COc1cc2c(cc1OC)-c1nnc(-c3cccs3)n1C(C)(C)C2	4%	-3.0%	.	.
COc1ccc(C2C(C(=O)c3ccc(C)o3)=C(O)C(=O)N2CC2CCCO2)cc1OC (stereo not drawn)	2%	3.2%	.	1%
Oc1cccc2c(NC(=S)Nc3ccc(SC(F)F)cc3)cccc12	-7%	?	1	3%
COc1ccc(CCNC(=O)c2cccc3ccccc23)cc1OC	-3%	3.0%	.	-4%
Cc1ccc(NC(=O)CSCC(=O)OC(C)C(=O)Nc2ccccc2C)cc1 (stereo not drawn)	0%	-3.2%	.	.
Cc1cc(C)nc(SCc2ccc(C(=O)N/N=C/c3ccc(C(=O)O)cc3)cc2)n1	-7%	2.8%	3	-3%
CC(NS(=O)(=O)c1ccc([N+](=O)[O-])cc1)C(=O)NN (stereo not drawn)	-2%	-4.9%	-14	0%
COc1ccc(Nc2cc(C)nc3ncnn23)cc1Cl	-3%	-2.9%	.	-12%
COc1ccc(C(=O)C2CCCN(C(=O)c3cccnc3OC)C2)cc1F (stereo not drawn)	1%	-0.3%	-23	1%
Cc1cc(NS(=O)(=O)c2ccc(NC(=O)Cc3cccs3)cc2)no1	-8%	-4.6%	0	-12%

SMILES	Rango release inh	Rango-impB inh	GLA inh pH 4.5	miR-21 FLuc
CCOc1cc(/C=N/NC(=O)CN2CCCCC2)ccc1O	-3%	2.9%	.	5%
CCCCn1c(-c2csc3ccccc23)n[nH]c1=S	15%	0.2%	-21	0%
CC(C)C(=O)NCCc1nc(-c2ccc(Cl)cc2)no1	1%	2.6%	.	.
COc1ccc([C@@H]2CC(=O)c3c(O)cc(O[C@@H]4O[C@H](CO[C@@H]5O[C@@H](C)[C@H](O)[C@@H](O)[C@H]5O)[C@@H](O)[C@H](O)[C@H]4O)cc3O2)cc1O	-23%	-0.8%	.	-1%
Cc1sc2ncnc(N3CCC(C(=O)Nc4nnc(CC(C)C)s4)CC3)c2c1C	15%	-0.5%	.	.
